T cruzi repl – inhibitors of intracellular T. cruzi growth, primary screen, luminescence, NIH3T3 host cells; T. cruzi beta-gal in NIH3T3, 90 h; inhibition, % (no concentration beside the values); hit rate 1.4% among 300,000;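 active = mean inhibition across valid replicates above about 55%, limit read from the data; inconclusive = mean below that limit but half or more replicates reach it; inactive = mean below it, under half of replicates reach it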;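 also: signal also drops with host cell toxicity which is not excluded here; 0% = plate median of DMSO wells and 100% = zero luminescence signal; higher percent means less beta-gal luminescence so fewer parasites; stock transfer was 50 nL into about 50 µL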
RanGTP-Impb inh – inhibitors of RanGTP-importin-beta interaction, primary screen, biochemical, FRET, CFP-Ran, YFP-importin-beta, homogeneous; cell-free CFP-Ran/YFP-importin-beta FRET ratio; inhibition, % (test concentration not listed); hit rate 1.1% among 300,000; AID 2216, 2009;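 active = most replicates above 15%; inconclusive = exactly half above 15%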;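 also: 0% = DMSO wells and 100% = Ran loaded with GDP instead of GTP; wells of about 40 µL received 100 nL stock; the first replicate is given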
Calb FLC – C. albicans growth inhibition with fluconazole, primary screen, CaCi-2 strain, Alamar Blue fluorescence. C. albicans CaCi-2 (fluconazole-resistant clinical isolate) + fluconazole, 48 h. growth inhibition, % (no concentration beside the values). hit rate 0.57% among 300,000;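 active = most replicates above 75%; inconclusive = exactly half above 75%; inactive = most below 75%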;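 also: all wells also contain fluconazole at 8 µg/ml as a sub-toxic cotreatment; 0% = median of DMSO wells and 100% = median of geldanamycin control wells; wells of about 8 µL received 7.5 nL stock; the first replicate is given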
AF4-AF9 inh – inhibitors of AF4 peptide binding to AF9, primary screen, biochemical, AlphaScreen, biotin-AF4 peptide, FLAG-AF9, single point. Protein AF-9 (Homo sapiens), P42568. inhibition, % at 10 µM. hit rate 0.47% among 350,000. AID 651704, 2012;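 active = every replicate reaching a set inhibition limit, whatever the replicate mean, cut at about 25% in these data; inconclusive = mean inhibition reaches that limit but some replicates miss it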;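 also: 0% = plate neutral control median and 100% = total signal loss; the record names both 10 and 1 µM as test concentration; the first replicate is given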
LANA-H2A inh – blockers of LANA interaction with H2A/H2B – biochemical, FP readout, HTS, primary screen; Protein LANA1 (Human herpesvirus 8 type P (isolate GK18)), Q9QR71; hit rate 0.6% among 320,000; inhibition, % (no concentration beside the values); AID 2629, 2010; cell-free LANA-H2A/H2B peptide, fluorescence polarization; in the data active = inhibition mostly above about 10%, no sharp cut-off; inactive = mostly below about 6.7%;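 also: stock transfer was 7.5 nL into about 10 µL; 0% = median of vehicle wells and 100% = median of positive control wells; one replicate is shown; the record names a cut of 25% in any replicate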
Target sequence (Q9QR71 whole entry, looked up): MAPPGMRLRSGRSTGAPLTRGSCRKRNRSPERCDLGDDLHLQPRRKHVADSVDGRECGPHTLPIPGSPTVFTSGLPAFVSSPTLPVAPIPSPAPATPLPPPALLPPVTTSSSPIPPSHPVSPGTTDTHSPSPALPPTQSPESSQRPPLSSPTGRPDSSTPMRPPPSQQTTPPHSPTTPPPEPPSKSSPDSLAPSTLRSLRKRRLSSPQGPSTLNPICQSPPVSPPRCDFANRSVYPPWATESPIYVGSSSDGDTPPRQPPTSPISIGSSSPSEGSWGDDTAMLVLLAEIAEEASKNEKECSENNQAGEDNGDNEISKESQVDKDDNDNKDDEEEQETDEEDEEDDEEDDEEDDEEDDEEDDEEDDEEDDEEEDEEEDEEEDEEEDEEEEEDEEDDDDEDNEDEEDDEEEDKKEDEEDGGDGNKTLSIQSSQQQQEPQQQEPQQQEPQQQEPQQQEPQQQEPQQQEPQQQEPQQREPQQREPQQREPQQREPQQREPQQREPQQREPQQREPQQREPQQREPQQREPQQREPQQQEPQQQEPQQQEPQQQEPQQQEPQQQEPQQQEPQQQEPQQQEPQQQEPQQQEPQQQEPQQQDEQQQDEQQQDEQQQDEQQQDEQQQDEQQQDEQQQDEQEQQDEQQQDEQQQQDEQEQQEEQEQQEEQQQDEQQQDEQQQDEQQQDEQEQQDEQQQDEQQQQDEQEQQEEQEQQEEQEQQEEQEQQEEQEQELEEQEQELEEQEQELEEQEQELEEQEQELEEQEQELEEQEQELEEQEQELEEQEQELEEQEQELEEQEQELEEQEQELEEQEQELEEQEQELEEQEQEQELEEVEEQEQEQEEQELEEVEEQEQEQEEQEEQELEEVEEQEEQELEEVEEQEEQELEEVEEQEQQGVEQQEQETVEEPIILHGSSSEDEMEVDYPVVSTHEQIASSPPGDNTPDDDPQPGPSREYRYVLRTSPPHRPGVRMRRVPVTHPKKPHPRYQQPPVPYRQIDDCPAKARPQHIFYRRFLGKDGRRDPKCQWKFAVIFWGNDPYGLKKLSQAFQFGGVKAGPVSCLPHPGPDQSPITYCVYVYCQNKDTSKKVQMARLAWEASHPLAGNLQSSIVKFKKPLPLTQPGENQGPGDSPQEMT
Beta apoptosis – inhibitors of cytokine-induced beta cell apoptosis, primary screen, luminescence. protection from apoptosis, % (no concentration beside the values). AID 435005, 2010. hit rate 0.8% among 300,000. INS-1E cytokine-induced death, ATP luminescence, 48 h; percent of positive-control rescue, neutral wells zero;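 active = all replicates at 75% or more, or half of them and the mean; inconclusive = half reach 75% but not the mean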;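 also: 0% = cytokine-treated negative control wells and 100% = positive control rescue; higher means more ATP so stronger rescue from cytokine killing; wells of about 40 µL received 100 nL stock; the first replicate is given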
Bfl-1 A1 inh – caspase 3/7 activation in MEF A1-2A-BIM cells, primary screen, A1 inhibitor project, cell-based, luminescence, HTS | hit rate 0.066% among 330,000 | Caspase-Glo 3/7 luminescence, 3 h; percent of clofoctol response, vehicle zero | caspase activation, % (no concentration beside the values);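 active = over half of replicate activation scores above 10%, or exactly half above 10 with the replicate mean above 10; inconclusive = replicate mean below 10 yet half the replicates above 10; inactive = over half of replicates below 10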;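 also: wells of about 30 µL received 50 nL stock; many hits fall short of the cut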
Vif TR-FRET – inhibitors of Vif binding to APOBEC3G peptide, primary screen, biochemical, TR-FRET, GST-Vif 1-94, biotin-A3G peptide, dose response retest (AID 1117319); hit rate 0.57% among 260,000; Virion infectivity factor (Human immunodeficiency virus type 1 group M subtype B (isolate …; inhibition, %, or IC50 in µM where a hit was titrated; TR-FRET GST-Vif / biotin-A3G peptide binding; higher % means a stronger effect; test concentration not given here; strong numbers were not always called active;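 active = above the screen mean plus three standard deviations and confirmed in dose response; inconclusive = results disagree or hit not tested in dose response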;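 also: Vif residues 1-94 fused to GST binding biotinylated APOBEC3G peptide 110-148; 0% = full assay without inhibitor and 100% = GST in place of GST-Vif; retest series ran down from 100 µM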
An asterisk follows results filed as active; ? = inconclusive; / = not tested or not shown; & = joins results of further samples. An excerpt; count on the stated rates, not on these rows.

SMILES	T cruzi repl	RanGTP-Impb inh	Calb FLC	AF4-AF9 inh	LANA-H2A inh	Beta apoptosis	Bfl-1 A1 inh	Vif TR-FRET
Cn1c(O)c(C=Nc2ccccc2Sc2ccccc2)c(=O)n(C)c1=O	-9	-3.6	-11	/	2.7	-8	0.4	-27%
COC(=O)CCCC(NC(=S)N1CC2C[C@@H](C1)Cn1c2cccc1=O)C(=O)OC (some centres undefined)	2	-2.3	3	0.9	3.9	-3	0.2	-3%
C=CCn1c(O)c(C(C)=NCc2ccc3c(c2)OCO3)c(=O)[nH]c1=O	4	-0.3	-4	-2.8	-0.5	/	0.2	-2%
C[C@]12CCC3C(CC[C@H]4C[C@H](O)CC[C@]34C)C1C[C@H](O)[C@@H]2O (some centres undefined)	/	/	/	0.0	-2.5	3	0.9	-1%
O=C1CC(N2CC=C(c3ccc(F)cc3)CC2)C(=O)N1c1ccc(F)cc1 (centres undefined)	6	2.1	-5	/	1.8	-2	-0.3	5%
CSc1ccc(C(c2c(O)c3ccccc3oc2=O)c2c(C)n(C)n(-c3ccccc3)c2=O)cc1 (centres undefined)	-5	-4.3	7	6.4	-2.2	1	-0.5	-5%
COc1ccc(C2NCc3ccc4c(c3-n3cccc32)OCO4)cc1O (centres undefined)	-13	3.6	11	/	5.3	17	1.0	4%
O=C(C[N+]12CCC(CC1)C(OC(=O)c1ccccc1)C2)c1ccc([N+](=O)[O-])cc1 (centres undefined)	2	-3.4	8	2.8	0.6	-1	-0.1	2%
CC1CCN(CCc2nc3ccccc3[nH]2)CC1	8	-1.4	/	-0.7	1.8	-5	0.5	/
C[C@]12CCC3C(CC[C@H]4C[C@@H](O)CC[C@]34C)C1C[C@@H](Br)[C@H]2O (some centres undefined)	/	/	/	9.5	2.1	2	0.5	/
CN1CCc2nc(SCc3cccc(Br)c3)c(C#N)cc2C1	49	4.2	2	1.7	2.2	-1	-0.3	/
CCOP(=O)(OCC)C(NC(=O)c1ccc(C)cc1)=C(Cl)Cl	-11	0.5	-1	-0.1	4.0	8	0.2	/
CCCCCCn1c(O)c(C=NC2CCN(Cc3ccccc3)CC2)c(=O)[nH]c1=O	49	-0.8	15	/	3.6	5	-0.2	-3%&0%
O=c1[nH]c(=S)n(-c2ccccc2F)c(O)c1C=Nc1ccc(N2CCOCC2)cc1	-2	-4.2	17	2.0	-6.5	3	-0.6	11%
O=C(c1ccc2c(c1)ncn2C1CCCCC1)N1CCC2(CC1)OCCO2	-9	1.3	-2	/	-2.3	6	2.0	?
COC(=O)C1=C(c2cccc(C#N)c2)C[C@@H]2CC[C@H]1N2C(=O)NC1Cc2ccccc2C1	/	/	/	1.8	2.5	2	-0.8	/
CC12CCCCC1=[N+]([O-])CN2O (centres undefined)	-9	2.3	-3	/	2.1	-2	1.2	21%
COC(=O)C1=C(c2ccc(F)cc2OCc2ccccc2)C[C@@H]2CC[C@H]1N2C(=O)NC(C)C	/	/	/	1.0	3.6	6	-0.3	/
CNC(=O)N(C)c1nnc(C(C)(C)C)s1	-3	-1.2	10	/	-0.3	-1	-0.5	-2%
CCCCOCCCn1c(N)c(C(=O)OCCOC)c2nc3ccccc3nc21	6	?	6	/	-0.8	-1	0.2	4%
COc1ccc(C(=O)NC(=S)N2C[C@H]3C[C@H](C2)c2cccc(=O)n2C3)cc1OC	-4	-5.8	8	-6.6	-1.7	4	0.5	/
O=C(CN1CCCCC1)NCC(=O)Nc1ccc(Br)cc1C(=O)c1ccccc1	10	1.0	0	/	7.0	1	0.3	-2%
CN1c2ccc([N+](=O)[O-])cc2CC2(C(=O)NC(=O)N(c3ccc(Br)cc3)C2=O)C1c1ccccc1 (centres undefined)	?	-0.9	6	5.0	-3.5	/	-0.1	/
Cc1ccc(-c2cc(-c3ccccc3)cc(-c3ccccc3)[n+]2-c2ccc(C(=O)O)cc2)cc1	-9	4.7	-12	-2.9	-0.7	-8	0.4	/
Nc1ncnc2c1ccn2[C@@H]1O[C@H](CO)[C@@H](O)[C@H]1O	86*	3.7	3	-3.2	-5.0	/	-1.0	/
O=C(c1ccc2c(=O)n(Cc3ccc4c(c3)OCO4)c(=S)[nH]c2c1)N1CCC2(CC1)OCCO2	-2	-3.7	-11	-1.8	57*	1	0.5	-9%&-2%
NCC(O)c1cc(O)c(O)cc1F (centres undefined)	/	/	/	53*	-7.9	-3	-0.1	/
COC(=O)C1=C(c2cc3ccccc3o2)C[C@@H]2CC[C@H]1N2C(=O)NCCCOC(C)C	3	4.6	-9	-1.2	-1.1	-1	-0.8	/
O=c1[nH]c(O)c(N=Nc2cc([N+](=O)[O-])ccc2O)c(=O)[nH]1	-2	-9.4	33	-2.3	-1.8	16	-0.3	/
Clc1ccc(CN2CCNCC2)cc1	13	-1.0	1	-10	-3.2	/	-1.1	/
C=CCn1c(O)c(C(C)=NCCN2CCOCC2)c(=O)[nH]c1=O	-14	-0.3	-28	/	4.1	-3	?	5%
COc1ccccc1N1C(=O)NC(=O)/C(=C/c2ccc3c4c(cccc24)CC3)C1=O	3	-1.7	4	/	-5.2	-4	2.4	?
CCOP(=O)(OCC)C(O)c1cccnc1 (centres undefined)	-8	8.3	2	-2.1	0.5	/	0.3	17%
C[C@]12CCC(=O)C=C1CCC1C2CC[C@@]2(C)C1CC[C@]2(C)O (some centres undefined)	/	/	/	-3.8	0.7	3	-0.6	-3%
CCN1CCN(c2cc(N3CCCC3)c(F)cc2[N+](=O)[O-])CC1	14	-3.2	1	/	-4.5	-3	-0.5	-6%
O=S(=O)(c1ccc(Cl)cc1)N1CCCC1c1cccnc1 (centres undefined)	13	-2.7	5	-0.9	-2.6	-5	0.3	/
Cn1c(O)c(C(=NCCN2CCCCC2)c2ccccc2Cl)c(=O)n(C)c1=O	-7	-1.3	-2	/	0.0	/	0.9	25%
O=C(Nc1ccccc1)c1cc([N+](=O)[O-])ccc1N1CCNCC1	3	3.2	-24	0.7	-1.0	0	0.4	-15%
CCc1cc(=O)oc2cc(C)cc(OCC(=O)N3CCC(C(=O)O)(c4ccccc4)CC3)c12	-21	?	4	-2.3	-5.3	-3	0.1	/
CN(C)c1ccc(/C=C2\C(=O)NC(=O)N(Cc3ccc(F)cc3)C2=O)cc1	-23	8.3	5	/	-1.4	-5	0.7	/
O=c1[nH]c(=O)n(Cc2ccccc2)c(O)c1/C=N/Nc1c(F)c(F)c(F)c(F)c1F	0	5.6	0	-3.5	1.3	/	-1.1	5%
COC(=O)C(c1ccccc1)N1CCCCCC1 (centres undefined)	-3	2.0	-1	/	-4.2	-3	1.2	15%
CCC12CN3CCN(CC(C3)C1O)C2 (centres undefined)	-18	-1.1	35	/	3.0	-4	0.4	18%
CCOC(=O)C1CCN(/C=C2/C(=O)NC(=S)N(c3cccc(OC)c3)C2=O)CC1	-14	0.9	-1	1.8	6.3	-3	0.0	2%
COc1ccc(-n2cnc3cc(C(=O)N4CCC5(CC4)OCCO5)ccc32)cc1	-20	3.2	?	-3.5	-1.9	0	-0.4	-13%
COc1ccc(CCNC2CCCCC2)cc1OC	-8	3.2	0	-0.6	1.1	-5	1.1	22%
O=C1NC(=O)N(c2ccccc2)C(=O)/C1=C/C=C/c1ccco1	-17	0.1	-2	3.9	3.7	-3	1.1	?
CCCC(C)n1[nH]c(=O)c2c1NC(=O)CSC2c1ccccc1 (centres undefined)	-10	2.3	-18	3.2	5.6	4	0.5	22%
COc1ccc(C(=O)C(Cc2ccccc2)N(C)C)cc1 (centres undefined)	17	-1.1	0	/	3.7	5	-0.4	5%
OC(c1ccc(F)cc1)C(c1ccccc1)N1CCOCC1 (centres undefined)	-3	-1.8	13	/	4.6	1	-0.2	7%

Additional compounds follow:
SMILES	T cruzi repl	RanGTP-Impb inh	Calb FLC	AF4-AF9 inh	LANA-H2A inh	Beta apoptosis	Bfl-1 A1 inh	Vif TR-FRET
COc1ccc(CCN)cc1OC	-14	-1.8	-15	4.1	-2.7	-1	-0.7	/
CN1CCN(c2ccc([N+](=O)[O-])c(NCc3ccco3)c2)CC1	46	1.3	-23	/	-1.2	3	-0.1	-3%
CCOP(=O)(OCC)C(O)c1ccc(OC)cc1 (centres undefined)	-3	-1.5	-7	-0.7	0.1	/	1.0	14%
COc1cccc(OP(=O)(Nc2ccccc2)Oc2cccc(OC)c2)c1	-2	2.1	-25	/	6.4	0	0.4	/
CCCNC(=O)N1[C@H]2CC[C@@H]1C(C(=O)OC)=C(c1cccc(OC)c1OC)C2	-2	-0.1	6	-0.7	1.5	-7	-0.3	/
CC(=O)C1CCC2C3CCC4CC(O)CCC4(C)C3CCC12C (centres undefined)	-6	1.1	-5	-1.1	0.6	-1	-0.2	/
CC(=NCCCN1CCOCC1)c1c(O)n(Cc2ccccc2)c(=O)[nH]c1=O	-1	-4.4	2	/	-0.1	0	0.6	11%
O=c1[nH]c(=O)n(Cc2ccc(F)cc2)c(O)c1C=NCCN1CCCCC1	-24	4.6	-6	/	2.8	-1	-0.4	3%
COCCCNC(=O)c1c(NC(=O)c2ccccc2)n(Cc2ccccc2)c2nc3ccccc3nc12	0	?	9	/	2.3	0	-0.9	3%
CCCCn1c(O)c(C(C)=Nc2ccc3c(c2)CCC3)c(=O)[nH]c1=O	0	-1.2	-14	-9.9	-0.1	-3	0.2	-5%
CCC(=NCCC(c1ccccc1)c1ccccc1)c1c(O)[nH]c(=O)[nH]c1=O	1	?	11	/	0.2	-8	-0.6	-12%
COC(=O)Cn1cc(C=C2C(=O)NC(=O)NC2=O)c2ccccc21	-5	1.2	13	-0.4	4.0	-2	2.0	-3%
CCOC(=O)c1c(C)n(Cc2ccco2)c2c1cc(O)c1ccccc12	-7	1.9	9	/	-2.0	-5	0.4	6%
COc1ccc(C2=NCC(=O)N(CC(=O)NCc3ccco3)c3sc4c(c32)CCCC4)cc1	12	1.6	16	/	-3.6	-7	-0.1	8%
Cc1nn(Cc2ccccc2)c(Cl)c1C(=O)OC(C)C(=O)Nc1ccc(F)cc1Cl (centres undefined)	10	-1.9	?	16	1.3	0	-0.1	-2%
O=c1[nH]c(=O)n(CCC2=CCCCC2)c(O)c1C=NC1CCN(Cc2ccccc2)CC1	/	/	/	/	1.9	0	-1.1	-1%
COc1cc(CN=Cc2c(O)n(C(C)(C)C)c(=O)[nH]c2=O)cc(OC)c1	18	0.4	0	3.6	4.7	-8	0.0	-5%
c1ccc2c3c([nH]c2c1)C1(CCNCC1)NCC3	-14	1.8	23	18	6.5	87*	-0.4	?
CC(c1ccccc1)(c1ccccc1)c1ccncc1	-9	0.8	-1	-3.1	-3.6	-4	0.1	?
Oc1c(Cl)cc(Cl)cc1CN1CCN(Cc2ccccc2)CC1	9	-3.9	-5	12	-0.4	-2	1.1	2%

Screens deposited in PubChem BioAssay by several laboratories.
